CDC25B CDK2 inh: human CDC25B-CDK2/CyclinA binding inhibition; HTRF CDC25B-CDK2/CyclinA binding, anti-His/anti-Flag; hits give high values; z-score (concentration not given with the values); 94,000 compounds, 0.72% hits; AID 1259370;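 also: score is relative to mean and SD of negative controls; strong numbers were not always called active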
HIV TAR-Tat: HIV-1 TAR-Tat binding disruption | 100,000 compounds, 0.6% hits | HIV-1 TAR RNA, Tat peptide displacement FRET; hits give high values | z-score (test concentration not listed);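 also: score is relative to mean and SD of negative controls; some compounds called inactive have numbers as strong as hits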
* = called active by the depositor; . = no result given.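 The calls were made as follows: active = z-score from 3 up in half or more of its runs; inactive = the rest.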

Preview:
Structure	CDC25B CDK2 inh	HIV TAR-Tat
CCOC(=O)CCc1c(C)nc2ccc(C)cn2c1=O	0.82	0.85
CCCCSc1nc2c(c(=O)[nH]1)C(c1ccc(OC)cc1)C(C(=O)OCC)=C(C)N2 (centres undefined)	-0.55	-0.7
COc1ccc(OC)c(C2=NS(=O)(=O)N(C)C(C(=O)N3CCC(C(N)=O)CC3)=C2)c1	-1.23	1.01

The listing, repeating the preview:
Structure	CDC25B CDK2 inh	HIV TAR-Tat
CCOC(=O)CCc1c(C)nc2ccc(C)cn2c1=O	0.82	0.85
CCCCSc1nc2c(c(=O)[nH]1)C(c1ccc(OC)cc1)C(C(=O)OCC)=C(C)N2 (centres undefined)	-0.55	-0.7
COc1ccc(OC)c(C2=NS(=O)(=O)N(C)C(C(=O)N3CCC(C(N)=O)CC3)=C2)c1	-1.23	1.01
CS(=O)(=O)CCC(C(=O)NCCc1c[nH]c2ccccc12)N1Cc2ccccc2C1=O (centres undefined)	.	-1.55
O=C(OCCN1C(=O)C2C3c4ccccc4C(c4ccccc43)C2C1=O)c1ccccc1 (centres undefined)	1.43	0.45
O=S(=O)(c1ccc2c(c1)CCO2)N1CCN(c2nc3cc(Cl)ccc3s2)CC1	-1.43	.
CCN1CCN(Cc2ccc3cccnc3c2O)CC1	1.67	2.84
COc1cccc2c1NC(C)(C)C=C2C	-1.18	.
COc1cc(CNc2cnc3cc(S(=O)(=O)N4CCCCC4)ccc3n2)cc(OC)c1	-3.58	-1.18
Cc1ccc(-c2cc3nccc(-c4cc(C)ccc4O)n3n2)cc1	-1.89	2.8
Cc1ccccc1-n1nnc(-c2nc(-c3ccc(F)cc3)no2)c1N	.	0.9
COc1ccc(Cc2nc3c4cnn(-c5ccc(OC)cc5)c4ncn3n2)cc1	-1.03	-0.08
CCCCSc1nc2n(n1)C(c1ccc(OC)c(OC)c1)C1=C(CC(C)(C)CC1=O)N2 (centres undefined)	-2.41	-0.14
COC(=O)c1sc2ncccc2c1-n1c(C)ccc1C	0.04	-1.06
N#Cc1c(N)nc(Sc2ccc(Cl)cc2)c(C#N)c1-c1ccco1	-1.17	.
O=C(NCc1ccco1)c1cnn(-c2ccc(F)cc2)c1-n1cccc1	.	1.2
c1ccc(CNCCCSc2nnnn2-c2ccccc2)cc1	-0.75	1.18
C=Cc1ccc(Cn2nc(-c3ccc(OC)cc3)c3c(C)onc3c2=O)cc1	.	0.06
Cc1c2c(=O)n(-c3nc4ccccc4s3)[nH]c2cc(=O)n1Cc1ccc(C(=O)O)cc1	13.3	23.9*
O=C(Oc1ccccc1Br)c1cc(-c2cccs2)on1	0.32	1.66
CC(C)C(=O)Nc1nnc(SCc2cc(=O)n3nc(C4CC4)sc3n2)s1	.	-0.14
Cc1ccc(S(=O)(=O)NCC(O)Cn2c3ccccc3c3ccccc32)cc1 (centres undefined)	-1.02	0.16
O=C(NCc1noc2ccccc12)NCC1CCCO1 (centres undefined)	.	0.59
O=C(NCCC1=CCCCC1)c1nn(-c2ccc(Cl)cc2)nc1CO	-1.74	-0.69
N#Cc1nc(/C=C/c2ccc(F)cc2)oc1NCc1ccc(F)cc1	0.84	0.45
O=C(CCS(=O)(=O)c1cc2c(cc1Cl)NC(=O)CO2)Nc1ccc(F)cc1	.	2.14
CC(=O)c1ccc(OC(=O)Cc2cc(F)cc(F)c2)cc1	-2.27	.
O=S1(=O)N=C(C2COc3ccccc3O2)Nc2ccc(S(=O)(=O)N3CCCCC3)cc21 (centres undefined)	.	2.29
CC1CSc2ccc(S(=O)(=O)N3CCN(C)CC3)cc2NC1=O (centres undefined)	.	0.73
O=C(Nc1ccc(OCc2cc(=O)n3ccsc3n2)cc1)c1ccco1	-0.07	1.7
CC(C)(C)NS(=O)(=O)c1sc(Br)cc1Br	0.49	.
O=C(Cc1cccs1)OCCCN=C1NS(=O)(=O)c2ccccc21	.	0.73
CC(=O)c1ccc(NC(=O)C2OC3OC(C)(C)OC3C3OC(C)(C)OC23)cc1 (centres undefined)	-0.37	.
Cc1ccc2oc(=O)n(Cc3ccc(OC(C)C)cc3)c2c1	-1.14	0.53
Cc1nc2sc(C(=O)c3ccc(Br)cc3)c(N)c2c(C)c1C	-0.84	1.76
C#CC1(NC(=O)NC(=O)c2ccc(F)c(Cl)c2)CCCCC1	-2.29	.
O=c1[nH]cc(F)c(=O)[nH]1	-1.04	1.1
Cc1cc2c(cc1CNC(=O)Cn1cc(C(=O)C(C)C)c3ccccc31)OCCCO2	.	0.69
OCCOCCNc1ncnc2c1cnn2-c1ccccc1	.	1.6
C=CCn1c(SCC(=O)NC2CCCCC2)nnc1-c1cc2cccc(OC)c2o1	.	-0.58
Cc1nn(CC(=O)NCCCOC(C)C)c(=O)c2cccn12	-0.92	2.11
O=C(c1cnn(-c2ccc(F)cc2)c1-n1cccc1)N1CCN(c2ccc(F)cc2)CC1	.	0.94
O=C(Nc1c(C(=O)c2ccccc2)oc2ccccc12)c1ccc(F)cc1	-0.06	0.55
O=C(NCCN1CCN(c2cccc(Cl)c2)CC1)Nc1ccccc1	-1.41	.
O=C(Nc1nccs1)c1ccc2noc(-c3ccccc3)c2c1	-1.62	-7.36
CN1C(=O)CC(=O)N(C)c2cc(S(=O)(=O)N3CCN(C4CCCCC4)CC3)ccc21	-2.52	1.91
CCc1nc2c(-c3ccc(C)cc3)noc2c(=O)n1CC(=O)O	-2.2	1.29
Cc1ccc2nc(CN3CCN(S(=O)(=O)c4ccc(Cl)cc4)CC3)oc2c1	.	1.17
COc1ccc(CCn2c(=O)c3cccnc3n(Cc3ccc(C#N)cc3)c2=O)cc1OC	-2.41	.
COC(=O)c1cc(-c2ccc(S(=O)(=O)Nc3ccc(Cl)cc3)s2)on1	.	-0.14

In the list so far, four have an NH in an aromatic ring:
Structure	CDC25B CDK2 inh	HIV TAR-Tat
CCCCSc1nc2c(c(=O)[nH]1)C(c1ccc(OC)cc1)C(C(=O)OCC)=C(C)N2 (centres undefined)	-0.55	-0.7
CS(=O)(=O)CCC(C(=O)NCCc1c[nH]c2ccccc12)N1Cc2ccccc2C1=O (centres undefined)	.	-1.55
Cc1c2c(=O)n(-c3nc4ccccc4s3)[nH]c2cc(=O)n1Cc1ccc(C(=O)O)cc1	13.3	23.9*
O=c1[nH]cc(F)c(=O)[nH]1	-1.04	1.1

Additional entries:
Results follow in this order: CDC25B CDK2 inh | HIV TAR-Tat
> CN(C)C(=O)c1ccc(S(=O)(=O)NC2CCCCC2)s1
→ . | 1.34
> O=C(CCC(=O)n1ncc2ccccc21)N1CCCCC1
→ -0.7 | 2.43
> Cc1nn2c3c(cnc2c1-c1ccccc1)C(=O)CC(c1ccccc1)C3 (centres undefined)
→ -0.13 | -1.6
> CCC(=O)N1CCc2cc(Br)cc(S(=O)(=O)CCC(=O)N3CCc4ccccc43)c21
→ -0.12 | -1.17
> CC(C)Sc1ncc(Cl)c(C(=O)N(Cc2ccc(N(C)C)cc2)C2CCS(=O)(=O)C2)n1 (centres undefined)
→ -1.7 | -0.82
> O=C(O)CSCc1ccc(F)cc1
→ . | 1.85
> COc1cc2c(cc1OC)C(C)N(C(=O)c1c(-c3ccccc3)noc1C)CC2 (centres undefined)
→ -3.52 | .
> Cn1c(=O)c2c(nc(CN3CCOCC3)n2CCCc2ccccc2)n(C)c1=O
→ -0.59 | -0.81
> Cn1c(=O)c2c(-c3cccc(Br)c3)n(C3CCCC3)cc2n(C)c1=O
→ -0.13 | 2.74
> CCN1C(SCc2ccc(C)cc2)=NS(=O)(=O)c2ccccc21
→ . | 1.35
> CCc1nn2c(C)nc3sc4c(c3c2nc1=O)CC(C)(C)OC4
→ -0.21 | 0.13
> Cc1cc(F)ccc1NS(=O)(=O)c1cc2[nH]c3c(c2cc1C)C(=O)CCC3
→ . | -1.42
> COc1cc(Cl)c(NS(=O)(=O)c2ccc(-c3cc(C)no3)s2)c(OC)c1
→ . | 0.56
> CCCOc1ccc(C2C(C(=O)OC)=C(C)NC3=C2C(=O)CC(C)(C)C3)cc1OC (centres undefined)
→ -0.8 | -0.13
> O=C(NCc1ccccc1)Nc1nnc(N2CCCC2)s1
→ -1.46 | 2.4
> N#Cc1cc2c(=O)n3ccccc3nc2n(CCCN2CCOCC2)c1=O
→ 0.34 | 0.59
> Cc1nc(-c2ccc(S(=O)(=O)Nc3ccc(C)c(C)c3)cc2)co1
→ . | 0.55
> Cc1ccc(S(=O)(=O)Nc2ccc3c(c2)N(S(C)(=O)=O)CCC3)cc1
→ . | 1.07
> O=C(Nc1ccccc1)c1oc2ccccc2c1NC(=O)c1nn(-c2ccc(Cl)cc2)ccc1=O
→ 6.09 | 0.45
> CC(=O)N1CCCSc2ccc(S(=O)(=O)N3CCc4ccccc43)cc21
→ . | -0.01
> CCN(c1ccccc1)S(=O)(=O)c1c(C)nc2sccn2c1=O
→ . | -5.38
> C#CCN1C(=O)C(O)(CC(=O)c2ccc(C)cc2)c2cc(Br)ccc21 (centres undefined)
→ -0.06 | 0.55
> COc1cc(CN2CCN(C3CC4CCC3C4)CC2)cc(OC)c1OC (centres undefined)
→ -0.49 | .
> N#CC1=C(N)Oc2n[nH]c(-c3ccc4c(c3)OCO4)c2C1c1ccc(C(F)(F)F)cc1 (centres undefined)
→ -0.03 | .
> COCc1cc(C)nc2sc(C(=O)c3ccc(Cl)cc3)c(N)c12
→ -1.68 | 1.91
> CC1=C2C(=NCCN1)C(=O)N(c1ccc(F)cc1)C2c1ccccn1 (centres undefined)
→ -0.15 | -6.96
> CCOC(=O)c1cccc(NC(=O)c2cc(OC)c(OC)cc2[N+](=O)[O-])c1
→ 0.37 | .
> Nc1cc(-c2ccccc2)nn1-c1nc(C(=O)O)cs1
→ . | 1.8
> CCOCCCNC(=O)c1c(NC(=O)c2cc(=O)c3cc(C)c(C)cc3o2)sc2c1CCC2
→ -1.94 | 0.02
> CCN(CC)c1nc(Nc2ccc(C)cc2C)c2cnn(C)c2n1
→ . | 1.24

Reprinted from the part before: 2 compounds; new compounds follow.
Results follow in this order: CDC25B CDK2 inh | HIV TAR-Tat
> CCOCCCNC(=O)c1c(NC(=O)c2cc(=O)c3cc(C)c(C)cc3o2)sc2c1CCC2
→ -1.94 | 0.02
> CCN(CC)c1nc(Nc2ccc(C)cc2C)c2cnn(C)c2n1
→ . | 1.24
> Cc1ccc(S(=O)(=O)c2c(N)n(CCO)c3nc4ccccc4nc23)cc1
→ 18.3* | .
> COc1ccc(Nc2ncnc3sc4c(c23)CCCC4)cc1
→ . | 0
> NC(=O)c1c(NC(=O)COCc2cc(-c3ccco3)on2)sc2c1CCCC2
→ . | 0.02
> CCCc1[nH]nc2c1C(c1ccc(OC(=O)N3CCOCC3)c(OC)c1)C(C#N)=C(N)O2 (centres undefined)
→ -0.26 | 1.43
> Cc1c(C(=O)C(=O)N2CCc3ccccc32)c2ccccc2n1C
→ -1.71 | -1.03
> CC(C)c1cc(C2CCCN2C(=O)c2cc(C3CCCCC3)no2)no1 (centres undefined)
→ . | 1.86
> CC(=O)Nc1nnc(SCc2cc(=O)n3nc(CC(C)C)sc3n2)s1
→ . | 0.6
> COc1cc(NC(=O)c2ncc(C(F)(F)F)cc2Cl)c(C(=O)O)cc1OC
→ -1.66 | .
> Cc1oc2ncnc(N3CCCCC3)c2c1C(=O)Nc1ccc2c(c1)OCO2
→ . | 1.1
> COc1cccc2c1C(=O)c1c(O)c3c(c(O)c1C2=O)C[C@@](O)(C(=O)CO)C[C@@H]3O[C@H]1C[C@H](N)[C@H](O)[C@H](C)O1
→ . | -7.67
> CCOC(=O)CN(C=NC#N)c1ccc(OC)cc1
→ -1.61 | .
> Cc1cc2nc(COc3ccc(C(C)(C)c4ccccc4)cc3)cc(=O)n2o1
→ 1.22 | -0.36
> CCCN1C=NS(=O)(=O)c2ccc(C)cc21
→ . | 1.4
> CCOC(=O)c1cccc(N/C(N)=N/c2nc(C(F)(F)F)cc(=O)[nH]2)c1
→ -4.54 | .
> Cc1onc(-c2ccccc2)c1C(=O)Nc1ccc2c(c1)OCCO2
→ -0.81 | .
> CCOC(=O)CNC(=O)N1CC(C)Oc2ccc(Cl)cc21 (centres undefined)
→ . | 2.22
> O=C(CSc1nnc2c3ccccc3nc(-c3ccccc3)n12)Nc1ccccc1
→ . | 0.64
> Cc1nn(C)cc1NC(=O)c1cc2n(n1)C(C(F)(F)F)CC(c1ccco1)N2 (centres undefined)
→ -2.17 | -1.09
> Cc1cc2nc(CSc3nnc(C)s3)cc(=O)n2o1
→ -0.96 | -0.38
> Cn1cc(NC(=O)N2CCC(N3CCCCC3)CC2)c2ccccc2c1=O
→ . | 0.29
> O=S(=O)(Nc1ccccc1)c1cccs1
→ 0.35 | -0.52
> Cc1cc(NC(=O)CSc2nccn2-c2ccc(Cl)cc2)no1
→ -2.5 | .
> N#Cc1c[nH]n2c(=O)c3c(nc12)CCCC3
→ -0.31 | 1.17
> CCn1c(CN2CCCC2)nc2cc(NC(=O)C(C)C)ccc21
→ -0.69 | 0.58
> COc1cccc(Nc2nc(N3CCOCC3)nc3c2cnn3C)c1
→ . | 0.1
> O=C(Cn1cnc(S(=O)(=O)N2CCCC2)c1)NCCC1=CCCCC1
→ . | 0.5
> CCOC(=O)c1nc(NC(C)C)c2c(C)noc2n1
→ . | 0.49
> O=C(CSc1nc(-c2ccco2)nc2cc(=O)[nH]n12)NCCc1ccccc1
→ . | 0.76
> O=c1oc2ccccc2cc1C1=Nn2c(nnc2-c2cccnc2)SC1
→ -2.29 | .
> O=C(NCC1CCCO1)c1nc(-c2cccnc2)no1 (centres undefined)
→ . | 2.18
> COc1ccccc1CNS(=O)(=O)c1ccc2[nH]c3c(c2c1)CCCCC3
→ . | 0.48
> COC(=O)c1cnc(N2CCCN(C(=O)NC3CCCCC3)CC2)nc1C(F)(F)F
→ 0.61 | .
> COc1ccc(-c2nc(CN)c(C)o2)cc1
→ . | 1.68
> O=C(Nc1ccc(Cl)cc1)NC1(C(F)(F)F)Oc2ccccc2O1
→ -0.34 | .

Assay outcomes deposited in PubChem BioAssay by Center for Chemical Genomics, University of Michigan.
